# Screening results deposited in PubChem BioAssay by National Center for Advancing Translational Sciences (NCATS).
# Sfp PPTase inh: inhibitors of Bacillus subtilis Sfp phosphopantetheinyl transferase; Potency, µM, without a hit: max response, negative = inhibition, actives largely listed as inhibitors; Biochemical Sfp PPTase activity, qHTS; hit rate 3.5% among 310,000; active = well fitted inhibition curve with a large enough effect; inconclusive = small, poorly fitted or top-dose-only effect, or another doubt; inactive = no such curve, though single readings can be large or run the other way;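 also: the enzyme is Sfp with the accession as filed and its product quenches rhodamine fluorescence; potency is read from the fitted curve at half-maximal effect; 0% = enzyme reaction without inhibitor and -100% = no enzyme wells; top concentration of the series not given in the record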
#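 Fluorescence-quenching assay with 15 nM Sfp, 5 uM rhodamine-CoA and 12.5 uM BHQ-2-labelled ybbR peptide in pH 7.6 Hepes/MgCl2 buffer. Enzyme was pre-incubated with compound for 15 min at room temperature. Rate was taken from the 30-min fluorescence change (525/598 nm).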
# ClpP mod: qHTS Assay for Activators of ClpP; Potency, µM (titrated, usually from 57.5 µM), for the others: at the highest dose activity change, negative = active; ATP-dependent Clp protease proteolytic subunit (Bacillus subtilis (strain 168)), P80244; purified B. subtilis ClpP, FRET peptide cleavage, 20 min; AID 651965, 2013; hit rate 1.9% among 340,000; active = well fitted falling curve with a large enough effect; inconclusive = small, poorly fitted or top-dose-only effect; inactive = no such curve, though single readings can be large or run the other way; also: potency is read from the fitted curve at half-maximal effect; the source files actives as falling curves though it sought activators and does not explain the sign; nearly all actives have a fitted effect of over 65% in size; many hits overshoot -100%
# Target sequence (P80244 whole entry, looked up): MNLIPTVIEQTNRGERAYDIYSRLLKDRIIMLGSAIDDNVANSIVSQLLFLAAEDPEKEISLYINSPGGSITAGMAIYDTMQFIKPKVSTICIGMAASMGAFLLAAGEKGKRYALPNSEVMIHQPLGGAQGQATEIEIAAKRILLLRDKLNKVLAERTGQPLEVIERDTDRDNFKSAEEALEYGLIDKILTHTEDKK
#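 ClpP 10 microg/mL final, pH 8 Tris/KCl buffer with BSA, glycerol, Tween-20; compound pinned in; FRET-FV substrate; RT 20 min; Ex320/Em430; ΔFRET vs ADEP 5.8 microM, DMSO, no enzyme.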
# gsp agonist: agonists of gsp mutant (McCune-Albright syndrome). gsp mutant cells, cAMP HTRF, 30 min; control for the full effect not named in the record. Potency, µM (titrated, usually from 76.9 µM), without a hit: at the highest dose activation (cAMP increase), hits mostly activators. hit rate 0.13% among 340,000; active = well fitted activation curve with a large enough effect; inconclusive = small, poorly fitted or top-dose-only effect, or another doubt; inactive = no such curve, though single readings can be large or run the other way; cell line not stated here;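 also: phosphodiesterase inhibitor Ro 20-1724 added with compounds to block cAMP breakdown; potency is read from the fitted curve at half-maximal effect; nearly all actives have a fitted effect of over 60% in size; about a fifth of the inactives were tested at one dose only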
#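 Cells stably selected in G418 were plated at 2000/well, grown 16-24 hr, then given compounds in DMSO with the PDE inhibitor […] (300 uM solution added) for 30 min at 37C; cAMP was read by HTRF.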
# TRPV1 PAM: human TRPV1 potentiation; Q8NER1; TRPV1-expressing cells, Fluo-8 calcium influx, capsaicin EC20 potentiation; host cell line not named in the record; control for the full effect not named in the record; potentiation, % at 8.33 µM; hit rate 0.02% among 320,000; active means potentiation above 80%; inconclusive means 30% to 80%; inactive means below 30%; also: 0% is about no effect
# Target sequence (Q8NER1 whole entry, looked up): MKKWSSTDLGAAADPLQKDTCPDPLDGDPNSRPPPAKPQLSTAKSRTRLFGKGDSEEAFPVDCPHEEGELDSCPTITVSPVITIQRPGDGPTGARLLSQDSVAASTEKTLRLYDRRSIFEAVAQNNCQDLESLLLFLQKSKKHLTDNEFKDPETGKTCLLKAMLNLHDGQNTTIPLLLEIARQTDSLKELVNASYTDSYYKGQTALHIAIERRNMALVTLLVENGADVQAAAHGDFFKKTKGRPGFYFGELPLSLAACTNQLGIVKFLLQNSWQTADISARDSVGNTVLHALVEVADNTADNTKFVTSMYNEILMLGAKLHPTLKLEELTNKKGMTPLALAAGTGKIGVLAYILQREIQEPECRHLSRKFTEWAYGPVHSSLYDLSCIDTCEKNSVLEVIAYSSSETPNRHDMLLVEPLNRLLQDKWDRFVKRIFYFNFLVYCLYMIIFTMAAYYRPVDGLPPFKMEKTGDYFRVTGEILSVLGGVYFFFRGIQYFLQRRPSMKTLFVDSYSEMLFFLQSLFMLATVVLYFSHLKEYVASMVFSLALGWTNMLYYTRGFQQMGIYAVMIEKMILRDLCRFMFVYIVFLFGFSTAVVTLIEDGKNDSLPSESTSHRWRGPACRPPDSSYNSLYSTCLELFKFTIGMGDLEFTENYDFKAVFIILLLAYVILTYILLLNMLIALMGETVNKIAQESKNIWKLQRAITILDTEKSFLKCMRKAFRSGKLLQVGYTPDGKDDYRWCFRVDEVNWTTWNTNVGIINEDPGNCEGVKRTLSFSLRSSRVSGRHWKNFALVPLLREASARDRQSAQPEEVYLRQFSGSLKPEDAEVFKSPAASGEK
#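 TRPV1-expressing cells were cultured overnight at 35.5C and loaded with Fluo-8 calcium dye for 40 to 90 min at room temperature. After a 10 s baseline, compound was added and calcium influx was read kinetically for 3 min (ex 480/em 520 nm).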
# Menin-MLL FL inh: displaces fluorescein MLL peptide from human menin; FP activity change, % at 61.4 µM; AID 1766; Fluorescence polarization, fluorescein-MLL peptide displacement from menin; 290,000 tested, under 10 active; inconclusive = falling polarisation curve, or a change in total fluorescence; inactive = total fluorescence flat and polarisation flat or rising; no compound was filed as active; the % refers to the polarisation; negative = inhibition;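 also: % of control where 0% means no effect; inhibitors lower the polarisation; unlabelled MLL peptide was the positive control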
# CtBP-E1A blk: inhibitors of CtBP/E1A interaction. AlphaScreen GST-E1A/His-CtBP binding, 1536-well; hits give low values; control for the full effect not named in the record. activity change, % (no concentration beside the values). hit rate 0.49% among 340,000; in the data active means activity change below about -65%; inconclusive means about -30% to -65%; inactive means above about -30%; also: % is scaled to controls: 0 for no effect and ±100 for the full control effect; compound concentration not given in the record
#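 AlphaScreen with 125 nM GST-E1A and 125 nM His-CtBP (5X stocks) in Tris pH 8.0, 300 mM NaCl, BSA, Tween 20, TCEP. Compounds preincubated 2 h at 37 deg C, then glutathione donor/nickel acceptor beads added for 1 h at 37 deg C in dark.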
# gsp antag: gsp mutant antagonism; gsp-mutant cells, cAMP HTRF, 30 min; control for the full effect not named in the record; Potency, µM (titrated, usually from 76.9 µM), inactives show at the top dose activity change, negative = inhibition, most hits filed as inhibitors; hit rate 0.4% among 340,000; AID 624288; active = falling curve of any shape with a large fitted effect; inconclusive = falling curve, mostly with a smaller effect; inactive = flat or rising curve; cell line not stated here;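 also: intracellular cAMP measured with PDE inhibitor Ro 20-1724 present during compound exposure; potency is read from the fitted curve at half-maximal effect; % is scaled to controls: 0 for no effect and ±100 for the full control effect; nearly all actives have a fitted effect of over 65% in size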
#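 HTRF cAMP read-out (cAMP-d2 plus anti-cAMP antibody-K in lysis buffer, 30 min RT). Before lysis, cells are exposed to compounds with […] for 30 min at 37C in DPBS containing Ca/Mg, BSA and Tween 20.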
# An asterisk follows results filed as active; ? = inconclusive; · = no result given; [ ] = remark or other dose.
SMILES,Sfp PPTase inh,ClpP mod,gsp agonist,TRPV1 PAM,Menin-MLL FL inh,CtBP-E1A blk,gsp antag
Cn1cccc1C(=O)Nc1ccc(Cl)c(S(=O)(=O)N2CCCCC2)c1,·,-6.4%,9.4%,·,·,6.7,-7.0%
N#Cc1c(-c2ccccc2)c(-c2ccccc2)nn(CC(=O)NNC(=O)Nc2ccccc2)c1=O,19.8%,-1.5%,-44.5%[inhibitor],-8.9,7.0,-9.7,-13.9%
COc1ccc(CNC(=O)CN(c2cccc([N+](=O)[O-])c2)S(C)(=O)=O)cc1,27.6%,·,-62.8%[inhibitor],-0.5,1.7,12.9,8.0%
COc1cccc(N2C(N)=NC(N)=NC2(C)C)c1,0.9%,1.9%,-24.9%,-3.6,0.5,-1.2,8.5%
O=C(NCCc1c[nH]c2ccccc12)c1ccccc1,15.8%,0.5%,19.9%[15.4 µM],-3.9,-3.1,-3.9,-1.3%
COC(=O)C1=C(C)NC(=O)C1(NC(=O)CN1CCCC1=O)C(F)(F)F (configuration not stated),10.4%,1.5%,26.8%,-13.2,1.3,4.7,0.3%
COc1cccc(CNC(=O)CSc2nnc3c(n2)[nH]c2ccc(OC)cc23)c1,15.2%,·,1.9%[15.4 µM],-3.8,0.1,2.6,-1.6%
O=C(Cn1c(NCCCO)nc2ccccc21)c1ccco1,3.8%,-1.7%,-3.2%,-7.5,0.5,7.4,-2.4%
Cc1ccc(-n2ncc3c2CC(C)(C)CC3NC(=O)CCc2ccc(=O)[nH]n2)cc1 (configuration not stated),?,-1.1%,15.6%,18.6,-0.8,5.0,-4.2%
CCCNC(=O)N1CCCC(C(N)=O)C1 (configuration not stated),10.4%,·,17.9%[15.4 µM],3.5,3.2,-4.0,-4.5%
O=C(O)CNC(=O)c1ccccc1Br,18.0%,·,-22.0%[15.4 µM],-6.7,-2.2,·,21.4%
O=C(CN1C(=O)NC2(CCc3ccccc3C2)C1=O)NCC(F)(F)F (configuration not stated),11.4%,-1.6%,-34.4%,-14.7,-0.7,-1.6,13.0%
COCCn1c(-c2ccc(F)cc2)nc2cccnc21,13.3%,-17.2%,0.5%,7.7,1.7,-1.4,-0.8%
CC1=C(C(=O)Nc2cc(-c3cccc(F)c3)[nH]n2)C2(CCCCC2)OC1=O,8.7%,1.0%,-13.8%,3.6,-6.5,1.3,-10.0%
CN(C)C(CNC(=O)c1cc(S(=O)(=O)N2CCOCC2)ccc1F)c1cccs1 (configuration not stated),·,-2.5%,?,·,·,·,2.5%
N#C/C(=C/c1ccccc1)C(=O)OCC(=O)Nc1ccccc1[N+](=O)[O-],·,2.9%,-31.2%[inhibitor],2.0,·,-0.4,-4.4%
COc1ccc(N(C(=O)COc2ccccc2OC)S(=O)(=O)c2ccc(C)cc2)cc1,0.7%,-1.4%,-10.5%,-2.3,1.5,-3.8,-5.2%
CNC[C@H](NC[C@@H](NCCCc1ccccc1)c1ccccc1)[C@H](C)O,19.3%,-0.5%,·,-7.3,-0.5,-1.0,?
O=C(CC(=O)c1ccccc1)Nc1ccc(Cl)cc1,23.5%,·,17.3%,-4.1,-0.8,7.0,-1.0%
O=C(CCC1CCCN(Cc2cccc(Cl)c2)C1)NCc1ccccc1F (configuration not stated),11.1%,1.4%,9.4%,-16.2,3.0,·,6.5%
O=c1[nH]c2ccc(NC(=S)Nc3ccc(Cl)cc3)cc2[nH]1,3.3%,-2.4%,-10.1%,-2.6,3.4,-0.6,-13.5%
COc1ccccc1NC(=O)NCCN1CCNC1=O,4.8%,·,-0.7%[15.4 µM],8.6,-0.4,1.3,12.6%
CCC(CC)C(=O)Nc1ccc(C)c(O)c1,17.2%,-3.2%,2.4%,-7.3,-0.1,9.6,6.8%
O=C(/C=C/c1ccc(F)cc1)NC(=S)Nc1ccccc1C(=O)NC1CCCCC1,-9.3%,-0.8%,0.1%,·,3.7,0.6,?
COc1ccc(NC(=O)CSc2nc3ccccc3c(=O)n2C)cc1,21.1%,-0.5%,16.1%[15.4 µM],1.5,0.8,2.7,-26.2%
CN(C)c1oc(/C=C/c2ccccc2)nc1C#N,9.4%,-46.3%,4.5%,-10.4,7.8,8.1,-10.5%
FC(F)(F)c1ccccc1C1C2=C(Nc3ncnn31)c1ccccc1CCC2 (configuration not stated),28.2µM*,·,·,-13.9,1.2,·,·
C/C=C(\C)C(=O)NCCN1C2=NC[C@H](Cc3ccc(O)cc3)N2C[C@@H]1Cc1ccc(OC)cc1,3.8%,-0.5%,8.0%,-9.2,2.6,-7.7,8.9%
Cn1cc(/C=C(\C#N)C(=O)Nc2cccc([N+](=O)[O-])c2)c2ccccc21,5.8%,0.0%,-23.4%,9.5,?,-2.3,0.9%
O=C(NCc1ccco1)c1nn2c(C(F)(F)F)cc(-c3cccs3)nc2c1Cl,20.6%,-0.4%,1.3%,-0.2,2.0,6.7,2.5%
Cc1ccc(NC(=O)c2cc(-c3ccccc3O)n[nH]2)cc1Cl,14.8%,·,-42.0%[inhibitor][15.4 µM],5.9,3.0,8.0,0.3%
CCn1c(COC(=O)CNC(=O)c2cc(OC)c(OC)c(OC)c2)nc2cc(S(=O)(=O)N(C)C)ccc21,·,-2.8%,-10.6%,11.7,·,-10.7,-2.8%
CN(CC(=O)Nc1ccc(Cl)c(Cl)c1)C(=O)c1ccccc1SCC(=O)N1CCCC1,·,-0.6%,-3.5%,·,·,-1.1,·
C[C@H]1CN([C@@H](C)CO)C(=O)c2cccc(NS(=O)(=O)c3ccc(F)cc3)c2O[C@H]1CN(C)S(=O)(=O)c1cn(C)cn1,·,1.4%,·,·,·,4.3,9.1%
Nc1cc(=O)[nH]c(SCC(=O)NNC(=O)c2ccccc2)n1,·,-1.7%,7.1%[15.4 µM],-8.4,·,2.5,13.5%
CCCCN1CNC(=S)N(c2ccccc2OCC)C1,1.9%,-4.5%,-19.8%,-3.2,-0.1,-15.4,-10.6%
COc1ccc(N2CC(C(=O)NCc3ccccc3)CC2=O)cc1 (configuration not stated),17.8%,-1.3%,-17.0%,-1.4,0.0,-2.7,1.0%
O=C(NCCNC(=O)c1ccc(-c2cc(Cl)ccc2Cl)o1)c1cnccn1,·,-4.8%,?,·,·,-25.7,·
Cc1noc(C)c1CN1C(=O)c2ccc([N+](=O)[O-])cc2C1=O,5.9%,·,?,-13.3,0.0,-7.3,-4.7%
COC(=O)C(C)(C)NC(=O)c1cccs1,5.0%,0.1%,-41.4%[inhibitor],-4.1,1.8,1.4,4.7%
Cn1ncc([N+](=O)[O-])c1C(=O)Nc1cc(Cl)ccc1Cl,·,0.1%,-23.5%,·,·,3.7,·
CCC(=O)NCCc1nc2cc(NC(=O)c3ccccc3Cl)ccc2n1C,8.5%,·,4.6%,-2.0,-0.6,0.0,5.5%
COc1ccc(C(=O)NNC(=O)Nc2ccc(Cl)cc2)cc1,-28.8%,·,-4.6%[15.4 µM],-2.0,0.8,0.0,·
CCCNC(=O)N(C)c1nncnc1C(=O)NC,-0.4%,-2.4%,-33.0%[inhibitor],-7.7,2.3,2.9,6.6%
CC(=O)N1CCN(C(=O)COc2ccccc2C(=O)Nc2ccccc2)CC1,23.2%,0.7%,13.9%,-8.5,-3.8,0.3,-2.9%
Cc1cccc(C)c1N1C(=O)CC(N2CCSCC2)C1=O (configuration not stated),8.1%,0.6%,-3.9%[15.4 µM],1.2,-3.3,0.4,23.0%
COc1ccccc1N1CCN(C(=O)c2ccc(CSc3ccccc3)cc2)CC1,-1.2%,-1.5%,5.3%,-0.8,·,-6.1,-6.5%
COc1ccc(-n2c(C)cc(C)c(C(C)=O)c2=S)cc1,1.8%,-25.6%,-36.3%[inhibitor],-9.9,0.3,-0.7,-2.2%
COC(=O)[C@H](Cc1ccc(O)cc1)NC(=O)Cn1cnc2c(SC)nc(N)nc21,·,?,·,·,·,-22.7,-7.4%
CCOC(=O)N1CCN(C(=O)CCCn2nc(C)c3sc4ccccc4c3c2=O)CC1,-0.8%,?,0.0%,15.7,-0.8,-4.8,-6.0%
O=C(NC12CC3CC(CC(C3)C1)C2)c1ccc([N+](=O)[O-])o1,-5.7%,-2.8%,0.1%,-19.2,?,-12.4,0.1%
CCOC(=O)c1cc(-c2ccccc2C)nn1CC1CC(c2ccc(OC)cc2)=NO1 (configuration not stated),·,-5.8%,·,19.0,·,7.9,-13.6%
Cc1ccc(C(=O)OCC(=O)Nc2ccc(Cl)cn2)s1,·,0.8%,0.7%,0.4,·,11.7,19.0%
CC(C)N1C(=O)/C(=C\c2nc3ccccc3c(=O)[nH]2)c2ccccc21,-14.1%,-3.1%,4.1%,-13.8,-3.5,-3.2,10.4%
CC(=O)N(CCCN(C)C)CCC(C)CCC=C(C)C (configuration not stated),13.5%,-0.9%,-7.1%,-21.4,3.4,8.3,1.1%
COCCNC(=O)C(=O)N/N=C/c1cccs1,15.9%,-1.9%,-70.2%[inhibitor],10.6,1.5,·,7.7%
Cc1cc2oc(C(=O)Nc3cccnc3)c(C)c2cc1C,-2.6%,?,0.0%,0.2,-0.4,-7.2,2.8%
NC(=O)c1ccc(NC(=O)COC(=O)CCC2CCCCC2)cc1,·,-1.8%,10.6%[15.4 µM],·,·,-9.0,2.6%
Cc1ccccc1NC(=S)NCc1ccc2[nH]c3c(c2c1)CCCC3,5.3%,-3.6%,2.1%,20.3,4.8,-3.2,-0.1%
CCc1n[nH]c(=S)n1/N=C/c1cc(OC)cc([N+](=O)[O-])c1O,22.4µM*,·,24.5%[15.4 µM],1.2,15.9,-12.7,?
CC(Sc1nc(-c2ccccc2)cc(C(F)(F)F)n1)C(=O)Nc1ccc2c(c1)OCO2 (configuration not stated),1.1%,-7.9%,10.6%,28.5,8.5,-3.8,3.5%
Cc1cc(C)c2c(=O)n(CC(=O)N3CCN(c4ccccc4)CC3)ccc2n1,·,-2.6%,-9.3%,·,·,6.4,·

# An unsorted share of the library; about 5.3% have a hit in one of these screens.
